# VACV Venus inh: qHTS for Stage-Specific Inhibitors of Vaccinia Orthopoxvirus: Venus Reporter Primary qHTS; Vaccinia virus Venus reporter expression, fluorescence; 0.46% of 330,000 active; Potency, µM (top dose mostly 36.5 µM), for the others: at the highest dose activity change, negative = inhibition, most hits filed as inhibitors; AID 720580, 2013; active means well fitted inhibition curve with a large enough effect; inconclusive means small, poorly fitted or top-dose-only effect; inactive means no such curve, though single readings can be large or run the other way; tested in A549 cells; note: nearly all actives have a fitted effect of over 30% in size; inactives centre near -10
# Vaccinia mCherry: qHTS for Stage-Specific Inhibitors of Vaccinia Orthopoxvirus: mCherry Reporter Primary qHTS | Vaccinia virus mCherry reporter infection, fluorescence; about a quarter of the inactives have no number | Potency, µM (highest dose often 36.5 µM), without a hit: at the top dose activity change, negative = inhibition, hits mostly inhibitors | 0.63% of 310,000 active; active = well fitted inhibition curve with a large enough effect; inconclusive = small, poorly fitted or top-dose-only effect; inactive = no such curve, though single readings can be large or run the other way; tested in A549 cells; note: nearly all actives have a fitted effect of over 35% in size; inactives centre near -10
# * hit, by the source's call; i = inactive; ? = inconclusive; . = no result given; & = joins results of further samples; [ ] = remark or other dose. % is set by controls: 0 for no effect and ±100 for the full control effect; potency is the fitted concentration of half-maximal effect.
# Every second line gives: VACV Venus inh	Vaccinia mCherry
1. O=C(CCCCn1c(=O)[nH]c2ccsc2c1=O)NCCc1ccccc1
  10%	i
2. O=C(NNC(=S)Nc1ccccc1Cl)c1ccccc1
  -19%	i
3. O=C(Nc1ccc(C(=O)Nc2ccccc2Cl)cc1)c1cccnc1
  -6%	i
4. COc1ccccc1/C=N/NC(=O)c1nnn(-c2nonc2N)c1CSC1=NCCS1
  -11%	-8%
5. O=C(COC(=O)c1ccc(O)cc1)Nc1cccc(S(=O)(=O)N2CCCCC2)c1
  -13%	i
6. COc1ccc(CNS(=O)(=O)c2cc3c(cc2C)N(C)CCO3)cc1
  -15%&-14%	?
7. COc1cccc(NC(=O)c2nn(C)c(C(=O)Nc3cccc(OC)c3)c2[N+](=O)[O-])c1
  -6%	-16%
8. COc1cccc(-n2c(SCC(=O)Nc3cccc(Cl)c3)nc3c(oc4ccccc43)c2=O)c1
  -4%	-6%
9. O=C(Nc1cc(C(F)(F)F)ccc1N1CCOCC1)c1cccnc1Cl
  9%	-4%
10. O=C(NC1CCCC1)C1CCC(=O)N1C1CCCC1 (configuration not stated)
  -17%	i
11. CC1CCCCN1C(=O)c1cccc(NC(=O)c2ccccc2)c1 (configuration not stated)
  -15%	-10%
12. O=C(NCC1CC1)c1ccc(Nc2nc3ccc(Br)cc3[nH]2)cc1
  -19%	-21%
13. BrCCOCCOc1ccc2ccccc2c1
  -6%	-14%
14. Cc1ccc(NC(=O)CCn2nc(C)c(S(=O)(=O)N3CCCCC3)c2C)cc1Cl
  -12%	-17%
15. Cn1c(=O)c2[nH]c(CCCCc3nc4ccccc4[nH]3)nc2n(C)c1=O
  -7%	i

# Later entries
# Every second line gives: VACV Venus inh	Vaccinia mCherry
16. O=C(CC1C(=O)NCCN1C(=O)Nc1ccccc1)Nc1ccc2c(c1)OCO2 (configuration not stated)
  -28%	-13%
17. O=C(CNC(=O)c1ccccc1Cl)N/N=C/C=C/c1ccccc1
  -4%	i
18. Cc1ccccc1OCC(=O)Nc1ccccc1NC(=O)c1ccco1
  -2%	29%
19. Cc1ccc(S(=O)(=O)CC(=O)Nc2ccc(F)c(F)c2F)cc1
  -23%	i
20. CC1=C(C(=O)OCC2CCCO2)C(c2coc3ccccc3c2=O)C2=C(CC(C)(C)CC2=O)N1 (configuration not stated)
  5%	-3%
21. C=CCN(CC=C)C(=O)c1cccc(OC2CCN(S(=O)(=O)N(C)C)CC2)c1
  -13%	-20%
22. O=C(O)c1nnsc1-c1csnn1
  -9%	-18%
23. COC(=O)Cc1ccc(OC2(C)CCN(Cc3ccc4c(c3)OCCO4)C2)cc1 (configuration not stated)
  -7%	-10%
24. CC(=O)N1C(=O)NC2=C(C(=O)CCC2)C1c1cccc([N+](=O)[O-])c1 (configuration not stated)
  -6%	-8%
25. O=C(NCCCCc1ccccc1)c1ccccc1Cl
  1%	0%
26. Cc1ccccc1CNC(=O)C(=O)Nc1nccs1
  -5%	i
27. Nc1ccc2nc3c(c(Cl)c2c1)CCCC3
  ?	?
28. CC1(C)CC(=O)C=C(NC2CC(C)(C)NC(C)(C)C2)C1
  -8%	i
29. CCn1nccc1NC(=O)c1csc([C@@H]2C[C@H](O)[C@@H](CO)O2)n1
  -1%	9%
30. COc1ccc(C#Cc2ccc3c(c2)c(=O)c2ccccc2n3C)cc1
  -19%	-6%

# Later entries
# Every second line gives: VACV Venus inh	Vaccinia mCherry
31. O=S(=O)(Nc1nc(-c2sccc2Cl)cs1)c1cc(Cl)ccc1Cl
  -4%	0%
32. CC1(C)Cc2ccccc2-c2nc3ccccc3c(=O)n21
  -18%	.
33. O=C(CN1CCN(c2ccc(F)cc2)CC1)Nc1ccc(F)c(F)c1
  -17%	.
34. CC(=O)Nc1ccc(Br)cc1C(=O)C(=O)O
  1%	-20%
35. CC(=O)Nc1ccc(OCC(=O)NCc2ccc3c(c2)OCO3)cc1
  -8%	-13%
36. Cc1ccc(/C=N/NC(=O)c2ccc(NC(=O)c3ccccc3Cl)cc2)o1
  -5%	-6%
37. CN(C(=O)c1ccc(OC2CCN(Cc3ccccn3)CC2)cc1)C1CCCCC1
  -12%	i
38. COc1ccccc1CNC(=O)c1cc(-c2ccc(F)cc2C)n[nH]1
  -6%	i
39. CCOC(=O)C1(C)C=C(Nc2ccccc2)C(=O)N1c1ccccc1 (configuration not stated)
  -8%	i
40. Cn1c(=O)c2c(SCc3c(F)cccc3Cl)nc(CC(C)(C)C)nc2n(C)c1=O
  -5%	-7%
41. O=S(=O)(c1ccc2ccccc2c1)n1nc(-c2ccco2)nc1NCc1ccc(F)cc1
  -5%	2%
42. COC(=O)c1ccccc1-c1ccc(/C=N/NC(N)=O)o1
  -12%	-5%
43. O=C(CNC(=O)C1COc2ccccc2O1)N/N=C\c1cccc(O)c1 (configuration not stated)
  -10%	-11%
44. CCc1ccc(N2C(=O)CN(CC(=O)OC)C2=S)cc1
  -13%	i
45. CCc1nc2ccc(C(=O)NCCCN3CCCC3=O)cn2c1N(C)Cc1ccc(OC)cc1
  -5%	33%[activator]

# The results go on.
# Every second line gives: VACV Venus inh	Vaccinia mCherry
46. Cc1ccn2cc(CCNC(=O)COc3ccccc3)nc2c1
  4%	-9%
47. COc1ccc(NS(=O)(=O)c2ccc(N3CCOCC3)c(NC(=O)/C=C/C(=O)O)c2)cc1
  -8%	-10%
48. CCCCc1nc(SCC(=O)Nc2ncccn2)n[nH]1
  -12%	-20%
49. CCc1ccc(NC(=O)c2sc3nc4c(cc3c2N)CN(CC)CC4)cc1
  -11%	-6%
50. Cc1nc2ccc(NC(=O)C3(C)CCCN(C(C)C)C3)cc2o1 (configuration not stated)
  -7%	-12%
51. Cc1ccc(C)c(OCCn2cc(C(=O)O)c3ccccc32)c1
  -10%	i
52. OCCN(CCO)c1ccc(/C=C/c2ccnc3ccccc23)cc1
  -13%	-9%
53. S=C(Nc1ccc(Cl)cc1)N(CCCN1CCOCC1)Cc1ccco1
  -19%	i
54. COc1ccc(OCC(=O)NN2Cc3ccccc3C2=N)cc1
  -12%	-17%
55. CC(=O)N1CCCc2ccc(NS(=O)(=O)c3ccc(C)cc3)cc21
  ?	-9%
56. O=C(NCCN1CCCCCC1)C1CC(=O)N(CCc2ccccc2)C1 (configuration not stated)
  -12%	-1%
57. N#Cc1ccc(OCC(=O)OCC(=O)Nc2ccc(N3CCOCC3)cc2)cc1
  0%	i
58. Cc1ccn2c(C(=O)N/N=C\c3cccs3)c(C)nc2c1
  -5%	-5%
59. CCCCC1CCC(C(=O)Nc2ccc(S(=O)(=O)Nc3nccs3)cc2)CC1 (configuration not stated)
  -13%	-1%
60. CCCOc1ccc(N2CC(C(=O)Nc3ncccc3C)CC2=O)cc1 (configuration not stated)
  -17%	-12%

# (list continues)
# Every second line gives: VACV Venus inh	Vaccinia mCherry
61. CCCOc1ccc(NC(=O)CC2C(=O)N(c3ccccc3)C(=O)N2Cc2ccco2)cc1 (configuration not stated)
  -5%	-8%
62. COC(=O)c1cccc(C(=O)Oc2cccc(Br)c2)n1
  -11%	-15%
63. COc1ccc(-c2nc3sc(CCNC(=O)C(C)(C)C)c(C)n3n2)cc1
  -18%	-14%
64. CC1(C)CC(=O)c2cnc(N3CCc4ccccc43)nc2C1
  -10%	-2%
65. CN(C)c1ccc(CNC(=O)CCn2c(=O)c3cccn3c3ccc(F)cc32)cc1
  -2%	0%
66. COc1ccccc1CNC(=O)CSc1nc(=O)n(Cc2ccncc2)c2c1CCC2
  -15%	-15%
67. CSc1ncccc1C(=O)OCC(=O)N1CCOCC1
  1%	-19%
68. Cn1cc(C(=O)O)c(=O)c2cc(S(=O)(=O)N3CCOCC3)ccc21
  ?	-18%
69. COc1ccccc1Cn1cnc2cccnc21
  -15%	-3%
70. O=C(O)C(Oc1ccc2ccccc2c1)c1ccccc1 (configuration not stated)
  -4%	-12%
71. Cc1ccccc1CNC(=O)C1CCN(S(=O)(=O)Cc2ccccc2)CC1
  -2%	-2%
72. CC(C)(C)c1ccc(C(=O)NC(=O)COC(=O)CCS(=O)(=O)c2ccccc2)cc1
  -11%	-14%
73. Cc1ccc(NC(=O)C2CCCN(S(=O)(=O)c3c(C)noc3C)C2)cc1F (configuration not stated)
  ?	-20%
74. O=C(CCCSc1nc2ccccc2s1)NCc1ccc2c(c1)OCO2
  -17%	-5%
75. Cc1ccc(C(=O)NCCc2nnc3ccc(SCC(=O)Nc4ccc(C)cc4C)nn23)cc1
  -9%	i

# New compounds follow
# Every second line gives: VACV Venus inh	Vaccinia mCherry
76. O=C(CCCc1ccccn1)c1cccc2ccccc12
  -20%	i
77. O=C(C[C@H]1C(=O)N(Cc2cccnc2)C[C@@H]1Cc1ccccc1)Nc1ccc(Br)cc1
  ?	-18%
78. Cc1ccc(S(N)(=O)=O)cc1NC(=O)c1c(-c2c(Cl)cccc2Cl)noc1C
  3%	1%
79. CCN1C(=O)c2cccc3c(NC(=O)c4ccc5c(c4)OCCO5)ccc1c23
  -11%	-2%
80. Cc1csc(N2CCCC2c2nc3cc(Cl)c(N4CCCCC4)cc3n2CCOCCO)n1 (configuration not stated)
  -18%	-26%
81. S=C1NCc2cncnc2N1
  -3%	22%
82. CCSc1nc(N2CCCCC2)c2c(c1C#N)CCCC2
  -5%	.
83. CC12CCC(=O)C=C1CC(N1CC1)C1C2CCC2(C)C(O)CCC12 (configuration not stated)
  -3%	-2%
84. O=C(Nc1ccccc1C(F)(F)F)c1ccccn1
  -3%	2%
85. CC(C)(C)c1cc(OC(=O)c2ccncc2)ccc1O
  -16%	i
86. Cc1ccc(N2CC(C(=O)NCCS(=O)(=O)N3CCN(c4ccccc4)CC3)CC2=O)cc1 (configuration not stated)
  -3%[7.34 µM]	-13%[7.34 µM]
87. O=C1/C(=C/c2cccs2)CCC1C1CCCC1 (configuration not stated)
  -19%	?
88. Cc1ccc(S(=O)(=O)N2CCC(NC(=O)c3cccnc3)CC2)cc1Cl
  -18%	-18%
89. O=C(c1ccccc1)N1CCN(S(=O)(=O)c2cccc(NS(=O)(=O)c3ccccc3)c2)CC1
  -4%	-13%
90. CCc1ccc(-c2cc(C(=O)N/N=C/c3ccco3)[nH]n2)cc1
  -22%	-20%

# The list continues.
# Every second line gives: VACV Venus inh	Vaccinia mCherry
91. COc1ccc(C2N(C(C)=O)CCN2S(=O)(=O)c2ccc(C)cc2)cc1 (configuration not stated)
  -13%	-20%
92. CCCC/S(CC1CC1(Cl)Cl)=N\S(=O)(=O)c1ccc(C)cc1 (configuration not stated)
  -16%	-5%
93. COc1ccc(/C=N/NC(=O)C(=O)N2CCCCCC2)cc1
  9%	-7%
94. CCC(C)(C)C1CCc2c(sc(NC(=O)c3ccoc3C)c2C(N)=O)C1 (configuration not stated)
  -11%	-4%

# Part of the list above in order of SMILES length, falling.
# Every second line gives: VACV Venus inh	Vaccinia mCherry
89. O=C(c1ccccc1)N1CCN(S(=O)(=O)c2cccc(NS(=O)(=O)c3ccccc3)c2)CC1
  -4%	-13%
77. O=C(C[C@H]1C(=O)N(Cc2cccnc2)C[C@@H]1Cc1ccccc1)Nc1ccc(Br)cc1
  ?	-18%
86. Cc1ccc(N2CC(C(=O)NCCS(=O)(=O)N3CCN(c4ccccc4)CC3)CC2=O)cc1 (configuration not stated)
  -3%[7.34 µM]	-13%[7.34 µM]
72. CC(C)(C)c1ccc(C(=O)NC(=O)COC(=O)CCS(=O)(=O)c2ccccc2)cc1
  -11%	-14%
75. Cc1ccc(C(=O)NCCc2nnc3ccc(SCC(=O)Nc4ccc(C)cc4C)nn23)cc1
  -9%	i
78. Cc1ccc(S(N)(=O)=O)cc1NC(=O)c1c(-c2c(Cl)cccc2Cl)noc1C
  3%	1%
80. Cc1csc(N2CCCC2c2nc3cc(Cl)c(N4CCCCC4)cc3n2CCOCCO)n1 (configuration not stated)
  -18%	-26%
79. CCN1C(=O)c2cccc3c(NC(=O)c4ccc5c(c4)OCCO5)ccc1c23
  -11%	-2%
91. COc1ccc(C2N(C(C)=O)CCN2S(=O)(=O)c2ccc(C)cc2)cc1 (configuration not stated)
  -13%	-20%
94. CCC(C)(C)C1CCc2c(sc(NC(=O)c3ccoc3C)c2C(N)=O)C1 (configuration not stated)
  -11%	-4%
71. Cc1ccccc1CNC(=O)C1CCN(S(=O)(=O)Cc2ccccc2)CC1
  -2%	-2%
92. CCCC/S(CC1CC1(Cl)Cl)=N\S(=O)(=O)c1ccc(C)cc1 (configuration not stated)
  -16%	-5%
74. O=C(CCCSc1nc2ccccc2s1)NCc1ccc2c(c1)OCO2
  -17%	-5%
93. COc1ccc(/C=N/NC(=O)C(=O)N2CCCCCC2)cc1
  9%	-7%
85. CC(C)(C)c1cc(OC(=O)c2ccncc2)ccc1O
  -16%	i
82. CCSc1nc(N2CCCCC2)c2c(c1C#N)CCCC2
  -5%	.
76. O=C(CCCc1ccccn1)c1cccc2ccccc12
  -20%	i
87. O=C1/C(=C/c2cccs2)CCC1C1CCCC1 (configuration not stated)
  -19%	?
81. S=C1NCc2cncnc2N1
  -3%	22%

# Bioassay records deposited in PubChem BioAssay by National Center for Advancing Translational Sciences (NCATS).

# The order is random. About 0.86% of those tested had a hit in this group.
